High-throughput results (PubChem)
Ran FRET: inhibitors of Ran–importin-beta complex formation, primary screen, biochemical, CFP-Ran/YFP-importin-beta FRET, RCC1, cell-free (AID 434961) | Regulator of chromosome condensation (Homo sapiens) + GTP-binding nuclear protein Ran … | CFP-Ran/YFP-importin-beta FRET, cell-free; stronger effect = higher value | inhibition, % | 0.2% of 7,700 active;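 active = more than half of the replicate wells above 15% inhibition; inconclusive = exactly half above it; inactive = fewer than half above it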;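 also: 0% = DMSO wells and 100% inhibition = RanGDP control wells on each plate; stock of unstated strength diluted about 400-fold; mean of two wells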
* hit, by the source's call; ? = inconclusive. The list is partial (hit frequency here may not be typical).

SMILES	Ran FRET
CC(C)NC(=O)Nc1ccc2c(c1)C(=O)N([C@H](C)CO)C[C@@H](C)[C@@H](CN(C)S(=O)(=O)c1cn(C)cn1)OCCCC[C@H](C)O2	4.2
C[C@H]1CN([C@@H](C)CO)C(=O)Cc2cc(N(C)C)ccc2O[C@H]1CN(C)Cc1ccccc1	1.7
C[C@H]1CN([C@@H](C)CO)C(=O)Cc2cc(NC(=O)C3CC3)ccc2O[C@H]1CN(C)Cc1ccc2c(c1)OCO2	-3.8
Cc1noc(C)c1NC(=O)N(C)C[C@@H]1OCCCC[C@H](C)Oc2ccc(NC(=O)CCC(F)(F)F)cc2C(=O)N([C@@H](C)CO)C[C@H]1C	-1.5
C[C@H]1CN([C@@H](C)CO)C(=O)Cc2cc(NC(=O)Nc3ccc(C(F)(F)F)cc3)ccc2O[C@H]1CN(C)C(=O)NC1CCCCC1	?
C[C@@H]1CCCCO[C@@H](CN(C)S(=O)(=O)c2cn(C)cn2)[C@@H](C)CN([C@@H](C)CO)C(=O)c2cc(NC(=O)Cc3ccccc3)ccc2O1	2.6
Cc1noc(C)c1NC(=O)Nc1ccc2c(c1)CC(=O)N([C@@H](C)CO)C[C@H](C)[C@@H](CN(C)C(=O)Nc1cccc3ccccc13)O2	1.5
C[C@@H]1CN([C@@H](C)CO)C(=O)c2cc(NS(C)(=O)=O)ccc2O[C@@H](C)CCCCO[C@@H]1CN(C)C(=O)c1ccncc1	-5.1
C[C@@H]1CN([C@@H](C)CO)C(=O)c2cccc(NC(=O)c3cnccn3)c2O[C@H]1CN(C)CC1CC1	-0.3
C[C@@H]1CN([C@H](C)CO)C(=O)c2cccc(NC(=O)c3ccncc3)c2O[C@@H]1CN(C)Cc1ccc(Cl)c(Cl)c1	0.7
C[C@H](CO)N1C[C@H](C)[C@H](CN(C)C(=O)Nc2cccc3ccccc23)Oc2ncc(-c3cc4ccccc4o3)cc2C1=O	-2.1
C[C@H]1CN([C@@H](C)CO)C(=O)c2cc(NC(=O)Cn3cnnn3)ccc2O[C@@H]1CN(C)Cc1ccc(Cl)c(Cl)c1	0.6
COc1ccc(S(=O)(=O)N(C)C[C@@H]2Oc3ccc(NC(=O)Cc4cn(C)c5ccccc45)cc3C(=O)N([C@H](C)CO)C[C@@H]2C)cc1	-3.2
C[C@@H]1CN([C@@H](C)CO)C(=O)c2cccc(NS(=O)(=O)c3cn(C)cn3)c2O[C@@H]1CN(C)Cc1ccc2c(c1)OCO2	?
Cc1noc(C)c1S(=O)(=O)Nc1ccc2c(c1)CC(=O)N([C@H](C)CO)C[C@H](C)[C@@H](CN(C)C(=O)Nc1ccc(C(F)(F)F)cc1)O2	2.1
Cc1noc(C)c1S(=O)(=O)N(C)C[C@@H]1Oc2ccc(NC(=O)CCN3CCOCC3)cc2CC(=O)N([C@@H](C)CO)C[C@@H]1C	-2.2
Cc1noc(C)c1NC(=O)N(C)C[C@@H]1Oc2c(NS(=O)(=O)c3cn(C)cn3)cccc2C(=O)N([C@H](C)CO)C[C@@H]1C	0.2
C[C@@H]1CCCCO[C@@H](CN(C)C(=O)CCCN(C)C)[C@H](C)CN([C@@H](C)CO)C(=O)c2cc(N(C)C)ccc2O1	1.1
C[C@@H]1CCCCO[C@H](CN(C)C(=O)Cc2ccccc2)[C@H](C)CN([C@@H](C)CO)C(=O)c2cc(NS(C)(=O)=O)ccc2O1	3.6
C[C@@H]1CN([C@@H](C)CO)C(=O)c2cccc(NS(=O)(=O)c3cn(C)cn3)c2O[C@H]1CN(C)Cc1ccccc1	-1.5
C[C@@H]1CN([C@H](C)CO)C(=O)Cc2cc(NC(=O)Cc3ccccc3)ccc2O[C@@H]1CN(C)C(=O)Nc1ccccc1	?
C[C@H](CO)N1C[C@H](C)[C@H](CN(C)C(=O)NC2CCCCC2)Oc2ccc(NC(=O)Nc3ccc(F)cc3)cc2C1=O	?
C[C@@H]1CCCCO[C@H](CN(C)C)[C@H](C)CN([C@@H](C)CO)C(=O)c2cc(NC(=O)c3ccccc3)ccc2O1	2.4
C[C@@H]1CN([C@H](C)CO)C(=O)Cc2cc(NC(=O)NC3CCCCC3)ccc2O[C@@H]1CN(C)S(=O)(=O)c1cn(C)cn1	1.4
C[C@@H]1CN([C@@H](C)CO)C(=O)c2cccc(NC(=O)c3ccc(-c4nccs4)cc3)c2O[C@H]1CN(C)S(=O)(=O)c1cccs1	-0.8
Next records.
SMILES	Ran FRET
Cc1noc(C)c1NC(=O)Nc1cccc2c1O[C@@H](CN(C)Cc1ccc(C(=O)O)cc1)[C@@H](C)CN([C@H](C)CO)C2=O	-1.9
C[C@H](CO)N1C[C@H](C)[C@H](CN(C)C(=O)NC2CCCCC2)Oc2ccc(N(C)C)cc2C1=O	-4.5
C[C@H]1CN([C@@H](C)CO)C(=O)Cc2cc(NC(=O)Nc3ccccc3)ccc2O[C@H]1CN(C)Cc1ccncc1	?
C[C@H](CO)N1C[C@H](C)[C@H](CN(C)C(=O)Nc2ccc3c(c2)OCO3)Oc2ccc(NS(=O)(=O)c3cn(C)cn3)cc2C1=O	0.0
COc1ccc(CN(C)C[C@H]2Oc3ccc(NC(=O)Nc4ccc5c(c4)OCO5)cc3C(=O)N([C@H](C)CO)C[C@@H]2C)cc1	6.8
CC(C)NC(=O)N(C)C[C@H]1OCCCC[C@@H](C)Oc2ccc(NC(=O)Nc3ccc(C(F)(F)F)cc3)cc2C(=O)N([C@@H](C)CO)C[C@H]1C	0.0
C[C@@H]1CN([C@H](C)CO)C(=O)c2cc(NC(=O)CCCN(C)C)ccc2O[C@@H](C)CCCCO[C@H]1CN(C)S(=O)(=O)c1ccccc1	9.3
Cc1noc(C)c1NC(=O)N(C)C[C@H]1Oc2ccc(NC(=O)Nc3ccc(F)cc3)cc2CC(=O)N([C@H](C)CO)C[C@H]1C	-0.3
C[C@@H]1CN([C@H](C)CO)C(=O)Cc2cc(N(C)C)ccc2O[C@@H]1CN(C)Cc1ccccc1	2.6
C[C@H](CO)N1C[C@H](C)[C@H](CN(C)S(=O)(=O)c2ccc(Cl)cc2)Oc2c(NC(=O)NC3CCCCC3)cccc2C1=O	-2.3
C[C@@H]1CN([C@@H](C)CO)C(=O)c2cc(NC(=O)Nc3ccc4c(c3)OCO4)ccc2O[C@H]1CN(C)Cc1ccc(C(F)(F)F)cc1	-4.5
C[C@H]1CN([C@@H](C)CO)C(=O)Cc2cc(NC(=O)c3ccncc3)ccc2O[C@H]1CN(C)C(=O)Nc1ccccc1	-0.6
C[C@H](CO)N1C[C@H](C)[C@H](CN(C)C(=O)Nc2cccc3ccccc23)OCCCC[C@H](C)Oc2ccc(NC(=O)c3ccncc3)cc2C1=O	0.2
C[C@@H]1CN([C@@H](C)CO)C(=O)c2cc(NC(=O)Cn3cnnn3)ccc2O[C@@H]1CN(C)Cc1ccc(Cl)c(Cl)c1	2.4
CNC[C@H]1Oc2ccc(NC(=O)NC3CCCCC3)cc2C(=O)N([C@H](C)CO)C[C@@H]1C	?
C[C@H](CO)N1C[C@H](C)[C@H](CN(C)Cc2ccc(C(F)(F)F)cc2)Oc2c(NC(=O)Nc3ccc(F)cc3)cccc2C1=O	-0.7
C[C@H](CO)N1C[C@H](C)[C@H](CN(C)S(=O)(=O)c2cccs2)Oc2c(NS(C)(=O)=O)cccc2C1=O	-6.7
Cc1noc(C)c1S(=O)(=O)N(C)C[C@@H]1Oc2ccc(NS(=O)(=O)c3cccs3)cc2CC(=O)N([C@@H](C)CO)C[C@@H]1C	-1.7
CNC[C@H]1Oc2c(NS(=O)(=O)c3ccc(OC)cc3)cccc2C(=O)N([C@H](C)CO)C[C@@H]1C	-1.9
C[C@@H]1CN([C@@H](C)CO)C(=O)c2cccc(NC(=O)Nc3ccc(F)cc3)c2O[C@@H]1CN(C)Cc1ccc(C(=O)O)cc1	8.4
C[C@@H]1CN([C@@H](C)CO)C(=O)Cc2cc(NC(=O)CCN3CCOCC3)ccc2O[C@@H]1CN(C)C(=O)Nc1cccc2ccccc12	-1.5
C[C@H](CO)N1C[C@H](C)[C@H](CN(C)Cc2ccc(C(F)(F)F)cc2)Oc2ccc(NC(=O)Cc3ccccc3)cc2CC1=O	-0.7
COc1ccc(S(=O)(=O)N(C)C[C@H]2Oc3ccc(NC(=O)Nc4ccc5c(c4)OCO5)cc3CC(=O)N([C@H](C)CO)C[C@@H]2C)cc1	-0.8
Cc1noc(C)c1NC(=O)N(C)C[C@H]1Oc2c(NC(=O)c3ccncc3)cccc2C(=O)N([C@H](C)CO)C[C@H]1C	3.3
C[C@@H]1CCCCO[C@@H](CN(C)C)[C@H](C)CN([C@@H](C)CO)C(=O)c2cc(NC(=O)CCC(F)(F)F)ccc2O1	1.7

A second format for ten compounds above:
structure | Ran FRET
C[C@H](CO)N1C[C@H](C)[C@H](CN(C)Cc2ccc(C(F)(F)F)cc2)Oc2c(NC(=O)Nc3ccc(F)cc3)cccc2C1=O | -0.7
C[C@H](CO)N1C[C@H](C)[C@H](CN(C)S(=O)(=O)c2cccs2)Oc2c(NS(C)(=O)=O)cccc2C1=O | -6.7
Cc1noc(C)c1S(=O)(=O)N(C)C[C@@H]1Oc2ccc(NS(=O)(=O)c3cccs3)cc2CC(=O)N([C@@H](C)CO)C[C@@H]1C | -1.7
CNC[C@H]1Oc2c(NS(=O)(=O)c3ccc(OC)cc3)cccc2C(=O)N([C@H](C)CO)C[C@@H]1C | -1.9
C[C@@H]1CN([C@@H](C)CO)C(=O)c2cccc(NC(=O)Nc3ccc(F)cc3)c2O[C@@H]1CN(C)Cc1ccc(C(=O)O)cc1 | 8.4
C[C@@H]1CN([C@@H](C)CO)C(=O)Cc2cc(NC(=O)CCN3CCOCC3)ccc2O[C@@H]1CN(C)C(=O)Nc1cccc2ccccc12 | -1.5
C[C@H](CO)N1C[C@H](C)[C@H](CN(C)Cc2ccc(C(F)(F)F)cc2)Oc2ccc(NC(=O)Cc3ccccc3)cc2CC1=O | -0.7
COc1ccc(S(=O)(=O)N(C)C[C@H]2Oc3ccc(NC(=O)Nc4ccc5c(c4)OCO5)cc3CC(=O)N([C@H](C)CO)C[C@@H]2C)cc1 | -0.8
Cc1noc(C)c1NC(=O)N(C)C[C@H]1Oc2c(NC(=O)c3ccncc3)cccc2C(=O)N([C@H](C)CO)C[C@H]1C | 3.3
C[C@@H]1CCCCO[C@@H](CN(C)C)[C@H](C)CN([C@@H](C)CO)C(=O)c2cc(NC(=O)CCC(F)(F)F)ccc2O1 | 1.7

(listing goes on)
SMILES	Ran FRET
COc1ccc(S(=O)(=O)Nc2ccc3c(c2)C(=O)N([C@@H](C)CO)C[C@@H](C)[C@H](CN(C)Cc2ccc(C(=O)O)cc2)O3)cc1	2.5
Cc1noc(C)c1NC(=O)N(C)C[C@@H]1Oc2ccc(NS(=O)(=O)c3cn(C)cn3)cc2C(=O)N([C@@H](C)CO)C[C@@H]1C	-3.7
C[C@@H]1CN([C@@H](C)CO)C(=O)Cc2cc(N(C)C)ccc2O[C@H]1CN(C)S(=O)(=O)c1cccs1	2.2
C[C@H]1CN([C@@H](C)CO)C(=O)c2cc(NC(=O)C3CC3)ccc2O[C@@H]1CN(C)C	1.1
C[C@@H]1CN([C@H](C)CO)C(=O)Cc2cc(NC(=O)NC3CCCCC3)ccc2O[C@H]1CN(C)C(=O)Nc1ccc(C(F)(F)F)cc1	?
COc1ccc(S(=O)(=O)N(C)C[C@H]2Oc3ccc(NC(=O)Nc4ccc5c(c4)OCO5)cc3CC(=O)N([C@H](C)CO)C[C@H]2C)cc1	-4.7
C[C@@H]1CCCCO[C@@H](CN(C)Cc2ccncc2)[C@H](C)CN([C@@H](C)CO)C(=O)c2cc(NC(=O)Nc3ccccc3)ccc2O1	2.8
C[C@@H]1CCCCO[C@H](CN(C)C(=O)Nc2ccc(F)cc2)[C@@H](C)CN([C@@H](C)CO)C(=O)c2cc(NS(=O)(=O)c3ccccc3)ccc2O1	0.7
Cc1noc(C)c1NC(=O)N(C)C[C@@H]1Oc2ccc(NC(=O)Nc3ccc(F)cc3)cc2C(=O)N([C@@H](C)CO)C[C@H]1C	-1.4
C[C@H]1CN([C@@H](C)CO)C(=O)c2cccc(NC(=O)C3CCOCC3)c2O[C@H]1CN(C)C(=O)Nc1ccccc1	-0.4
C[C@@H]1CN([C@@H](C)CO)C(=O)CCCn2cc(nn2)CO[C@H]1CN(C)S(=O)(=O)c1ccccc1	-1.0
COc1ccc(CN(C)C[C@H]2Oc3c(NS(C)(=O)=O)cccc3C(=O)N([C@H](C)CO)C[C@@H]2C)cc1	0.6
C[C@H]1CN([C@@H](C)CO)C(=O)c2cc(NS(C)(=O)=O)ccc2O[C@H]1CN(C)C	?
COc1ccc(S(=O)(=O)N(C)C[C@@H]2Oc3ncc(-c4ccc(F)cc4)cc3C(=O)N([C@H](C)CO)C[C@@H]2C)cc1	0.2
CNC[C@H]1Oc2c(NS(=O)(=O)c3ccc(OC)cc3)cccc2C(=O)N([C@H](C)CO)C[C@H]1C	-4.6
C[C@H](CO)N1C[C@H](C)[C@H](CN(C)S(=O)(=O)c2cn(C)cn2)Oc2ncc(-c3ccccc3)cc2C1=O	-3.3
CC(C)NC(=O)Nc1ccc2c(c1)CC(=O)N([C@H](C)CO)C[C@H](C)[C@H](CN(C)Cc1ccc(C(F)(F)F)cc1)O2	-1.4
CC(C)NC(=O)N(C)C[C@H]1Oc2ccc(NC(=O)CCC(F)(F)F)cc2C(=O)N([C@@H](C)CO)C[C@@H]1C	-2.8
COc1ccc(CN(C)C[C@@H]2Oc3c(NC(=O)NC(C)C)cccc3C(=O)N([C@H](C)CO)C[C@@H]2C)cc1	-2.8
CC(C)NC(=O)Nc1ccc2c(c1)C(=O)N([C@H](C)CO)C[C@H](C)[C@H](CN(C)C(=O)CCC(F)(F)F)OCCCC[C@H](C)O2	4.4
COc1ccc(S(=O)(=O)N(C)C[C@@H]2Oc3ccc(NS(C)(=O)=O)cc3CC(=O)N([C@H](C)CO)C[C@@H]2C)cc1	-2.8
COc1ccc(S(=O)(=O)N(C)C[C@H]2Oc3c(NC(=O)c4cnccn4)cccc3C(=O)N([C@H](C)CO)C[C@@H]2C)cc1	10
C[C@H](CO)N1C[C@H](C)[C@@H](CN(C)C(=O)CCC(F)(F)F)OCCCC[C@H](C)Oc2ccc(NS(=O)(=O)c3ccccc3)cc2C1=O	-0.3
